Compound activity: PubChem, ICCB-Longwood Screening Facility, Harvard Medical School
BasE inh: BasE siderophore biosynthesis inhibition; purified BasE, fluorescence polarization binding displacement; inhibition, % (test concentration not listed); hit rate 0.1% among 84,000; AID 485350;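 active = both replicates above 25% with normal brightness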;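 also: 0% = negative plate control signal and 100% = positive plate control signal; stock transfer was 100 nL into about 30 µL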
KSHV LANA nucl: LANA-nucleosome interaction inhibition; FITC-LANA1-23 / chicken nucleosome fluorescence polarization; active compounds read low; z-score (test concentration not listed); hit rate 0.3% among 51,000;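 active = both repeat wells score below -2 in polarization z-score versus plate sample wells, excluding overly bright wells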;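 also: 100 nL library stock added to about 30 µL; numbers are from one replicate; some results filed as inactive read as strong as hits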
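Test system: purified chicken nucleosomes with FITC-labelled LANA N-terminal peptide (1-23); Input: 240 nM purified chicken nucleosomes (480 nM peptide binding sites), final; Medium: TEN-BT buffer, pH 7.5; Timing: 10–45 min, room temperature; Technique: fluorescence polarization, 480 nm excitation, 535 nm parallel and perpendicular emission; Replication: duplicates.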
Active calls of the source: *; / = not tested or not shown; & = joins results of further samples.

SMILES	BasE inh	KSHV LANA nucl
CCOC(=O)c1oc2ccccc2c1Cn1cc(S(=O)(=O)N2CCCC2)ccc1=O	1.6	/
O=C(COC(=O)C1CCCCN1S(=O)(=O)c1ccccc1)Nc1ccc(OC(F)F)cc1 (stereo not given)	-1.0	/
COc1ccccc1N1CCN(CCCNS(=O)(=O)c2ccc(-c3cc(C)no3)s2)CC1	-1.6	/
O=C(CSc1nnc2n1CCCCC2)N1CCCC1c1ccc2c(c1)OCCCO2 (stereo not given)	-1.5	/
CC(C)(C)OC(=O)N1CCCC(C(=O)O)C1 (stereo not given)	1.4	/
Cc1ccc(CN(C)Cn2nc(-c3c[nH]c4ccccc34)n(-c3ccc(Cl)cc3)c2=S)o1	1.5	/
Cc1cc(C(=O)C(C)Sc2nnc(N)s2)c(C)n1-c1ccc(Cl)cc1 (stereo not given)	-0.7	/
CNC(=O)CCN1C(=O)c2cccnc2Sc2ccccc21	-4.2	2.58
CNC(=S)N(C)CCc1ccc(OC)c(OC)c1	0.5	/
CNC(=O)c1ccccc1NC(=O)C1=CSCCO1	-0.7	-0.155
CC(C)(O)C(=O)CCc1ccccc1	-0.4	0.422
O=C(CSc1nnc(CN2CCCCC2)o1)Nc1c(Cl)cc(Cl)cc1C(=O)O	1.3	/
CN(C)C(=O)CCCOc1ccccc1	0.9	0.106
Cc1cc2c(cc(C(=O)OC(C(=O)NC3CCCCC3)C(C)C)n2C)o1 (stereo not given)	-0.8	0.193
O=S(=O)(c1cccc2c(Cl)cccc12)N1CCCNCC1	-4.9	0.12
COc1ccc(OC)c(/C=N/c2ncn[nH]2)c1	-0.1	-0.243
CC(=O)N1c2ccc(F)cc2C(C)CC12CCCC2 (stereo not given)	1.3	0.406
CCOC(=O)Cn1c(C)cc(=O)c2cccc(C)c21	-2.2	-0.57
O=C(c1cc2c(s1)-c1ccccc1OC2)N1CCCCC1	-0.3	-0.849
C=CCSc1nnc(NC(=O)CCNS(=O)(=O)c2ccccc2)s1	-0.6	/
COc1cc(/C=C(\C#N)C(=O)C(C)(C)C)ccc1O	2.7	/
Cc1ccc(Cl)cc1N1CCN(C(=O)C2CCCN2S(=O)(=O)c2cccc3nsnc23)CC1 (stereo not given)	0.7	-0.905
CCC(=O)Nc1ccc(-n2cnnn2)cc1	3.3	/
O=C1C(c2ccccc2)CCCC1c1ccccc1 (stereo not given)	-1.8	/
COc1nc(NCCO)nc(Nc2ccccc2F)n1	-1.4	0.962
Cc1cc2c(cc3c(=O)n(CC(=O)N4CCc5ccccc5C4)ncn32)s1	-3.3	1.5
COc1ccc(CN(C)CN2C(=O)NC3(CCC(C(C)(C)C)CC3)C2=O)cc1 (stereo not given)	0.2	/
Cc1ccc(N(CC(O)Cn2c3ccccc3c3ccccc32)S(=O)(=O)c2ccccc2)cc1 (stereo not given)	-0.1	/
O=S(=O)(NC(c1ccccc1)c1nnc(-c2ccccc2)o1)c1ccc(F)cc1 (stereo not given)	-0.3	0.486
CCOc1ccc(S(=O)(=O)N(Cc2ccco2)Cc2ccccc2C#N)cc1	2.7	/
Cc1ccc(S(=O)(=O)c2c[nH]c3ccccc3c2=O)cc1	-0.5	-1.05
CC1CN(c2ccnc3cc(Cl)ccc23)CC(C)O1 (stereo not given)	0.0	/
CCOC(=O)/C(C#N)=C/Nc1ccccc1	-3.1	0.299
CC(Sc1nc2ccccc2o1)C(N)=O (stereo not given)	1.4	/
CCN1C(=O)/C(=C/C=C2/CCCN2C)N(c2ccccc2)C1=S	-18.5	/
COc1ccccc1NC(=O)COc1ncnc2ccccc12	-1.3	/
Cc1ccc(Cn2c(C3CC3)nc3ccc(N)cc3c2=O)cc1	0.8	0.144
COCCNc1nnc(SCC(=O)c2ccc3c(c2)OCO3)s1	-0.8	/
CCCCn1nnnc1COC(=O)c1ccccc1SCc1c(C)noc1C	0.2	/
COc1ccccc1OCCSc1nnnn1C1CCCCC1	2.8	/
CC(C)CN(C(=O)CSC1=Nc2ccccc2C2CC=NN12)C1CCS(=O)(=O)C1 (stereo not given)	-3.8	/
CC1Cc2ccccc2N1C(=O)C1CCCN1S(=O)(=O)c1ccc(Cl)cc1 (stereo not given)	-0.7	0.118
CCN(CC)C(=O)c1cc(-c2cccs2)nc2c1c(C)nn2-c1ccccc1C	-4.6	/
COCC(C)n1c(COc2ccccc2F)nnc1SCc1nc2ccccc2s1 (stereo not given)	3.2	/
CCNC(=O)N1CCN(C(=O)NCC)CC1	0.7	-0.453
CC1(C)Cc2[nH]c(=O)c(C#N)cc2CS1	1.7	-0.505
CC(C)C1O/C(=N\C(=O)Nc2ccc(Cl)c(Cl)c2)NC1=O (stereo not given)	2.8	/
CC1(C)CC(=O)C2=C(C1)OC(c1ccc(I)o1)C(C#N)=C2N (stereo not given)	0.8	-0.749
CCCC(=O)Nc1ccc(OCC(O)CNC(C)C)c(C(C)=O)c1 (stereo not given)	-2.4&-1.8	0.143&0.138&0.7
Cc1ccc(-c2cc(C(=O)OCC(=O)Nc3nc(C)c(Cl)cc3Cl)c3ccccc3n2)o1	-3.4	/
CC(=O)Nc1ccc(N2CC(C)(C)C2=O)cc1	/	-0.424
CCOC(=O)c1cc2c(=O)[nH]c3ccccc3c2s1	1.2	-0.053
Cc1ccc(S(=O)(=O)NCCOc2nc(N3CCOCC3)nc(N3CCOCC3)n2)cc1	-0.7	-0.127
CCC(C)Nc1nc(OC(C(F)(F)F)C(F)(F)F)nc(N(CC)CC)n1 (stereo not given)	0.4	-1.39
COc1ccccc1COn1c(=O)c(-c2ccco2)[n+]([O-])c2ccccc21	0.2	0.201
O=C(NCc1ccccc1)c1cccc(Cl)c1	-2.7	-0.356
O=C(c1ccccc1/S(=N/S(=O)(=O)c1ccccc1)N1CCOCC1)N1CCOCC1 (stereo not given)	-0.4	-0.227
O=C(O)/C(=C/c1ccc2c(c1)OCO2)NC(=O)c1ccccc1Br	0.7	/
C=CCN1C(=O)C2(C(C#N)=C(N)Oc3n[nH]c(COC)c32)c2ccccc21 (stereo not given)	-0.7	-0.772
Cc1n[nH]c(=O)c2c1nnn2Cc1ccccc1F	1.6	-1.53

(continued)
SMILES	BasE inh	KSHV LANA nucl
O=C(NCc1ccccc1)c1ccc2cn[nH]c2c1	-1.5	-0.464
O=C(CCSc1nnc(-c2ccco2)o1)Nc1ccccc1	-1.1	-0.233
CC(=O)N1c2ccccc2NC2=C(C(=O)CC(C)(C)C2)C1c1cccnc1 (stereo not given)	-0.2	0.683
CC(NC(=O)C1=COCCO1)c1ccc(Cl)c(Cl)c1 (stereo not given)	-0.7	/
Cn1cc(NC(=O)NCC2CCCO2)c2ccccc2c1=O (stereo not given)	3.2	0.314
O=S1(=O)CCC(N2CCCCC2)C1 (stereo not given)	0.6	-0.474
O=C(Nc1ccccc1F)Oc1ccccc1F	7.5	0.27
O=C(c1ccc2c(=O)n3c(nc2c1)CCCCC3)N1CCc2ccccc21	-1.9	-0.252
Cc1cc(C)n(-c2ccc(Cl)c(C(=O)OCC(=O)NCc3ccco3)n2)n1	1.6	/
CC(C)C(C)(C#N)NC(=O)CSc1nc2ccc(Br)cc2c(=O)n1Cc1ccco1 (stereo not given)	3.8	/
C=CCN=C1CC(C)(C)CC(=O)/C1=C(\O)CCC(=O)OC	2.7	/
Cc1ccc2oc(-c3cccc(N4C(=O)c5cccnc5C4=O)c3)nc2c1	4.6	-0.623

Molecules from the list above with an aryl methoxy group (9):
SMILES	BasE inh	KSHV LANA nucl
COc1ccccc1N1CCN(CCCNS(=O)(=O)c2ccc(-c3cc(C)no3)s2)CC1	-1.6	/
CNC(=S)N(C)CCc1ccc(OC)c(OC)c1	0.5	/
COc1ccc(OC)c(/C=N/c2ncn[nH]2)c1	-0.1	-0.243
COc1cc(/C=C(\C#N)C(=O)C(C)(C)C)ccc1O	2.7	/
COc1nc(NCCO)nc(Nc2ccccc2F)n1	-1.4	0.962
COc1ccc(CN(C)CN2C(=O)NC3(CCC(C(C)(C)C)CC3)C2=O)cc1 (stereo not given)	0.2	/
COc1ccccc1NC(=O)COc1ncnc2ccccc12	-1.3	/
COc1ccccc1OCCSc1nnnn1C1CCCCC1	2.8	/
COc1ccccc1COn1c(=O)c(-c2ccco2)[n+]([O-])c2ccccc21	0.2	0.201

Continued.
SMILES	BasE inh	KSHV LANA nucl
Cc1nc2c(c3nc(C#N)c(C#N)nc3n2Cc2ccco2)c2nc3ccccc3n12	-14.5	/
CCSc1nnc(NC(=O)C2Cc3ccccc3CN2C(=O)c2ccco2)s1 (stereo not given)	1.4	/
NC1(N)OC(CN2C(=O)c3ccccc3C2=O)CS1 (stereo not given)	-1.0	/
CC(SC1CCCC1)C(=O)Nc1ccnn1C(C)C (stereo not given)	-0.3	/
Fc1ccc(NC(=S)NC2CC2)cc1Cl	2.5	0.182
CC(C)(CC(=O)O)CC(=O)Nc1ccc2c(c1)OCO2	0.2	-1.76
CC1(C)Cc2c(C#N)c(N)sc(=S)c2CO1	1.5	0.494
CCOC(=O)COc1cc(=O)[nH]c2ccc(OC)cc12	-0.5	-0.116
O=C(Nc1ccc(-n2cnnn2)cc1)C1c2ccccc2Oc2ccccc21	0.9	/
O=C(Nn1cnnc1)c1ccc(Cl)cc1	-2.5	/
Cc1ccc(NC(=O)C(C)Sc2nnc(C3CCCCC3)n2C)cc1 (stereo not given)	0.6	-0.0835
Cc1c(Cc2ccccc2)c(=O)oc2c(O)c(O)ccc12	0.7	-0.271
CCOC(=O)Cn1ncc2c3ccccc3n(CC(=O)OCC)c2c1=O	1.0	-0.026
O=C(c1ccc(F)cc1)N1CCCCC(Sc2ccccn2)C1=O (stereo not given)	-0.1	/
Cc1ccc(CSc2n[nH]c(-c3ccc(C(C)(C)C)cc3)n2)cc1	1.3	/
Nc1nc(SCC(=O)N(CCO)CCO)nc2sc3c(c12)CCCC3	-2.2	-0.738
COc1ccc(-c2noc(CN(C(=O)CCc3ccccc3)C(C)C)n2)cc1	0.9	-0.144
CN(C)CCCNc1c2c(nc3cc(-c4cccc(F)c4)nn13)CCC2	0.7	0.203
COC(=O)C1=C(C)N(C)C(=S)N(C)C1c1cccc(Br)c1 (stereo not given)	1.4	/
CN(C)NS(=O)(=O)c1ccc2c(c1)Cc1cc(S(=O)(=O)NN(C)C)ccc1-2	2.6	-0.504
O=C(O)c1ccc(OC(F)F)cc1	-1.8	/
COc1ccc(CCC(=O)NCC(c2ccc(N(C)C)cc2)N2CCCC2)cc1 (stereo not given)	0.4	0.589
CC1CCc2c(sc3nc(C(C)C)n4c(SCC(=O)NCc5ccco5)nnc4c23)C1 (stereo not given)	0.7	2.46
CCOc1cc(/C=C2/C(=O)N(c3nn[nH]n3)N=C2C)cc(Cl)c1OCC	1.2	-1.29
COCCc1cc(C(F)(F)F)c2c(=O)n(C)c(=O)n(C)c2n1	-0.3	/
O=C(/C=C/c1cn(Cc2ccccc2)nn1)N1CCN(C2CCS(=O)(=O)C2)CC1 (stereo not given)	-2.2	/
O=C(O)/C=C/c1cnn(-c2ccccc2)c1	1.9	/
CCCC1CCC(C(=O)O)CC1 (stereo not given)	/	0.0725
COc1ccc(N2CCN(Cc3c(O)ccc4ccccc34)CC2)cc1	2.1	/
O=C1C=CC(=O)N1c1ccc(-c2nc3ccccc3o2)cc1	-0.7	-0.18
O=c1oc2ccccc2cc1-c1nnnn1-c1ccc(F)cc1	2.7	-0.545
COC(=O)CC(=O)CSc1nc(C)cc(C(F)(F)F)c1C#N	0.4	0.834
NC(=O)CN(Cc1ccccc1)S(=O)(=O)c1ccc(F)cc1	1.8	-0.513
CCN(CC)C(=O)Oc1ccc(Br)cc1C(=O)Nc1ccc(F)c(Cl)c1	/	0.478
Oc1ccc(Cl)c2cccnc12	-1.2	-0.116&1.13
CNC(=O)c1cc(S(=O)(=O)NC)ccc1C	-3.2	1.5

Two entries from above, with each value named.
> CCCC1CCC(C(=O)O)CC1 (stereo not given)
  BasE inh: /
  KSHV LANA nucl: 0.0725

> COc1ccc(N2CCN(Cc3c(O)ccc4ccccc34)CC2)cc1
  BasE inh: 2.1
  KSHV LANA nucl: /

Complete entries, looked up by structure. Order of screens: BasE inh, KSHV LANA nucl
`CCCC1CCC(C(=O)O)CC1` (stereo not given) is listed with /, 0.0725
`COCCc1cc(C(F)(F)F)c2c(=O)n(C)c(=O)n(C)c2n1` is listed with -0.3, /
`O=C1C=CC(=O)N1c1ccc(-c2nc3ccccc3o2)cc1` is listed with -0.7, -0.18
`Oc1ccc(Cl)c2cccnc12` is listed with -1.2, -0.116&1.13
`O=c1oc2ccccc2cc1-c1nnnn1-c1ccc(F)cc1` is listed with 2.7, -0.545

(cont.)
SMILES	BasE inh	KSHV LANA nucl
Cc1cccc2cnn(CC(=O)N3CCc4ccccc4C3)c12	0.3	0.198
CCOC(=O)N1CCN(C(=O)c2cn(CC(C)C)c(=O)c3c2c2ccccc2n3C)CC1	1.3	-0.566
O=c1c2c3c(sc2nc2ccc(NCc4ccco4)nn12)CCCC3	0.1	/
NC(=O)C1CCN(C(=O)CN2CCc3ccccc3C2)CC1	-1.8	0.717
CCOC(=O)N1CCN(S(=O)(=O)c2ccc(C(=O)Nc3cc(C)on3)cc2)CC1	-0.9	-0.458
Cc1ccc(C(C)(C)C)c(OCCOCCN2CCCC2)c1	-7.9	-0.034
CC1CC(NC(=S)NCCO)CC(C)(C)C1 (stereo not given)	-0.3	0.0935
CCCCc1cc(=O)oc2c(CN(C)C)c(O)ccc12	20.0	0.708
C=CCSc1nc(-c2ccccc2)c(C#N)c(=O)[nH]1	3.1	0.407
Cc1ccc(/C=C/C(=O)OCC(=O)c2cc(C)c(C)cc2C)o1	1.0	/

Not all compounds are listed, so the mix of outcomes need not match the whole.
